DUX4 txn inh = inhibitors of DUX4-driven ZSCAN4 reporter expression, primary screen, 293T cells, Gaussia and Italica luciferase; 293T-iDUX4 ZSCAN4-Gaussia luciferase reporter, 24 h; stronger effect = lower value; activity change, negative = inhibition, % (concentration not given with the values); 37,000 tested, 0.8% active; AID 1224904, 2016;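 active = -10% or lower and over 25 points stronger than a control reporter; inconclusive = -10% or lower with a smaller gap; inactive = above -10%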;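 note: 0% = median of neutral control wells and -100% = median of positive control wells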
DUX4 txn inh difference = further read-out of DUX4 txn inh, marked with its call; Gaussia minus Italica difference, %; measured here: selective DUX4 reporter inhibition;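 worked out from the two reporters; negative = selective loss of the DUX4 reporter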
DUX4 txn inh control = recorded beside DUX4 txn inh, whose call it bears; activity change, negative = inhibition, %; measured here: Italica tet-on control reporter;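 0 = neutral control and -100 = positive control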
The depositor's hits bear a star; ? = inconclusive; nt = not tested or not shown. This is a subset. The share of hits here may be higher or lower than overall.

DUX4 txn inh	DUX4 txn inh difference	DUX4 txn inh control	canonical_smiles
-1	1	-2.0	C[C@@H]1CCCCO[C@H](CN(C)C(=O)Nc2ccc(C(F)(F)F)cc2)[C@H](C)CN([C@H](C)CO)C(=O)c2cc(N(C)C)ccc2O1
0	-5	5.3	C[C@H]1CN([C@@H](C)CO)C(=O)Cc2cc(NS(C)(=O)=O)ccc2O[C@@H]1CN(C)S(=O)(=O)c1cccs1
10	10	-0.1	CCCN1C[C@@H](C)[C@@H](OC)CN(C)C(=O)c2ccc(NS(C)(=O)=O)cc2OC[C@@H]1C
1	1	0.8	C[C@@H]1CN([C@@H](C)CO)C(=O)Cc2cc(N(C)C)ccc2O[C@@H]1CN(C)Cc1ccc(-c2ccccc2)cc1
-7	-3	-3.9	CCS(=O)(=O)N1CC(=O)N2[C@H](CO)[C@@H](c3ccc(C#CCC(C)C)cc3)[C@@H]2C1
5	5	0.7	CN1CCN(C(=O)C[C@H]2C[C@H]3c4cc(NC(=O)c5ccc6c(c5)OCO6)ccc4O[C@H]3[C@@H](CO)O2)CC1
14	14	-0.7	CN(C)C(=O)c1cccc(-c2ccc3c(c2)[C@H]2[C@H](CCN2C(=O)c2cnccn2)[C@@H](CO)N3)c1
2	0	2.6	COC(=O)C[C@H]1C[C@@H]2c3cc(NC(=O)Nc4ccccc4)ccc3O[C@@H]2[C@@H](CO)O1
?	nt	nt	C[C@@H]1CN([C@H](C)CO)C(=O)CCCn2nncc2CO[C@H]1CN(C)Cc1ccc(-c2ccccc2)cc1
-9	-16	6.4	COc1ccc(CNC(=O)C[C@@H]2CC[C@@H](NC(=O)CN(C)C)[C@@H](CO)O2)cc1
7	5	2.6	C[C@H]1CN([C@@H](C)CO)C(=O)c2c(c3ccccc3n2C)-c2ccccc2CO[C@H]1CN(C)Cc1ccncc1
-2	-3	1.5	C[C@@H]1CN([C@H](C)CO)C(=O)c2cc(-c3ccncc3)cnc2O[C@H]1CN(C)S(=O)(=O)c1ccccc1
?	nt	nt	OC[C@@H]1[C@@H](c2ccccc2)C2(CN(Cc3ccccc3F)C2)N1Cc1ccccc1F
-3	0	-2.8	Cc1noc(C)c1NC(=O)N(C)C[C@H]1Oc2ccc(NC(=O)CCCCCC(=O)Nc3ccccc3N)cc2CC(=O)N([C@@H](C)CO)C[C@H]1C
-3	-7	3.8	CCCNC(=O)N1[C@H](CNC(=O)c2ccccc2)[C@H](c2ccccc2)[C@@H]1CO
-2	0	-1.6	C[C@@H]1CCCCO[C@H](CN(C)Cc2ccc(C(=O)O)cc2)[C@H](C)CN([C@@H](C)CO)C(=O)c2cc(NS(=O)(=O)c3ccc(F)cc3)ccc2O1
-4	-5	1.2	O=C(NC[C@H]1[C@@H](c2ccccc2)[C@@H](CO)N1CC1CCCC1)C1CC1
-2	2	-3.8	Cc1ccccc1S(=O)(=O)N(C)C[C@@H]1OCc2cn(nn2)CCCC(=O)N([C@H](C)CO)C[C@@H]1C
2	3	-1.2	CCC(=O)N1[C@@H]2c3cccc(=O)n3C[C@H]1[C@H](CO)[C@H]2C(=O)NCc1ccc(F)cc1
0	-2	2.0	CCCNC(=O)N(C)C[C@@H]1Oc2ncc(C#CCc3ccccc3)cc2C(=O)N([C@H](C)CO)C[C@@H]1C
-1	-2	0.7	Cc1noc(C)c1S(=O)(=O)Nc1ccc2c(c1)C(=O)N([C@H](C)CO)C[C@H](C)[C@H](CN(C)C(=O)Nc1cccc3ccccc13)OCCCC[C@@H](C)O2
9	9	-0.3	O=C(C[C@H]1CC[C@H]2[C@@H](COC[C@@H](O)CN2C(=O)c2ccc(F)cc2)O1)NC1Cc2ccccc2C1
-1	0	-0.1	O=C(Cc1ccncc1)Nc1ccc2c(c1)[C@@H]1C[C@@H](CC(=O)N3CCc4ccccc4C3)O[C@H](CO)[C@@H]1O2
1	2	-1.1	CCCC#Cc1ccc([C@H]2[C@@H](CO)N3C(=O)CN(C(=O)Nc4ccccc4)C[C@H]23)cc1
-8	2	-10	COc1ccc2c3c([nH]c2c1)[C@H](CO)N(C(C)=O)CC31CCN(Cc2ccccc2Cl)CC1
1	-1	1.8	Cc1noc(C)c1S(=O)(=O)N(C)C[C@H]1OCCCC[C@H](C)Oc2ccc(NS(=O)(=O)c3cn(C)cn3)cc2C(=O)N([C@H](C)CO)C[C@@H]1C
11	12	-0.3	COc1ccccc1CNC(=O)C[C@@H]1C[C@@H]2c3cc(N(C)C)ccc3O[C@@H]2[C@H](CO)O1
8	17	-8.3	CN(C)C(=O)c1ccc(-c2ccc(C3[C@@H]4CNC[C@H]3N4)cc2)cc1 (stereo partly specified)
2	-1	3.0	CN(C)C(=O)C[C@H]1C=C[C@@H](NS(=O)(=O)c2ccccc2)[C@H](CO)O1
9	-2	11	CC(C)NC(=O)N1CC(=O)N2[C@H](CO)[C@H](c3ccc(C#CCN(C)C)cc3)[C@H]2C1

Reprinted from the part before: two compounds; new compounds follow.
DUX4 txn inh	DUX4 txn inh difference	DUX4 txn inh control	canonical_smiles
2	-1	3.0	CN(C)C(=O)C[C@H]1C=C[C@@H](NS(=O)(=O)c2ccccc2)[C@H](CO)O1
9	-2	11	CC(C)NC(=O)N1CC(=O)N2[C@H](CO)[C@H](c3ccc(C#CCN(C)C)cc3)[C@H]2C1
1	0	1.0	C[C@H](CO)N1C[C@H](C)[C@H](CN(C)C(=O)c2ccc(F)cc2)Oc2ncc(C#CC3CC3)cc2C1=O
2	8	-6.4	COc1ccccc1C#Cc1ccc2c(c1)[C@H]1[C@H](CCN1C(=O)CN1CCOCC1)[C@@H](CO)N2
3	7	-4.1	CC=Cc1ccc2n(c1=O)C[C@@H]1[C@@H](CO)[C@H](C(=O)NC3CCC3)N(CC)[C@H]21 (mixture of isomers)
-8	-23	15	CCCNC(=O)N1CC2(C1)CN(Cc1ccccc1)[C@H](CO)c1[nH]c3cc(OC)ccc3c12
0	-3	2.9	Cc1noc(C)c1NC(=O)Nc1cccc2c1O[C@H](CN(C)Cc1ccc(C(=O)Nc3ccccc3N)cc1)[C@@H](C)CN([C@@H](C)CO)C2=O
2	0	1.5	CN(C)CC(=O)Nc1ccc2c(c1)[C@H]1C[C@@H](CC(=O)N3CCCCC3)O[C@@H](CO)[C@H]1O2
-6	-1	-5.1	CO[C@@H](CN(C)C(=O)c1cnccn1)[C@@H](C)CN([C@@H](C)CO)S(=O)(=O)c1ccccc1
-2	-5	3.1	Cc1ccc(S(=O)(=O)Nc2ccc3c(c2)CC(=O)N([C@H](C)CO)C[C@H](C)[C@H](CN(C)S(=O)(=O)c2ccccc2)O3)cc1
1	-2	3.1	CNC[C@@H]1Oc2ccc(NC(=O)Nc3c(C)noc3C)cc2C(=O)N([C@H](C)CO)C[C@@H]1C
0	4	-4.0	CNC[C@H]1Oc2c(NS(=O)(=O)c3cn(C)cn3)cccc2C(=O)N([C@@H](C)CO)C[C@H]1C
13	4	8.6	COc1ccc2c3c(n(C)c2c1)[C@H](CO)N(C(=O)c1ccccn1)CC31CN(C(C)=O)C1
-3	-1	-1.8	C[C@@H]1CN([C@@H](C)CO)C(=O)c2cc(NC(=O)C3CC3)ccc2O[C@H]1CN(C)S(=O)(=O)c1ccccc1
-3	-3	0.0	CCCNC(=O)Nc1ccc2c(c1)C(=O)N(C)[C@@H]1CC[C@H](CC(=O)O)O[C@H]1CO2
-1	-4	2.5	CC=Cc1ccc2n(c1=O)C[C@@H]1[C@@H](CO)[C@H](C(=O)NCCc3ccccc3)N(C(=O)CC)[C@H]21 (mixture of isomers)
1	3	-1.8	CC(=O)N1[C@H](CN(C(=O)c2ccc(F)cc2)C(C)C)[C@H](c2ccccc2)[C@@H]1CO
-3	-2	-1.2	N#C[C@@H]1[C@@H](c2ccc(-c3ccncc3)cc2)[C@@H](CO)N1C(=O)C1CCC1
-2	-5	3.0	C[C@H](CO)N1C[C@H](C)[C@@H](CN(C)S(=O)(=O)c2ccccc2)Oc2cc(-c3cccc(F)c3)ccc2S1(=O)=O
-4	-4	0.0	Cc1noc(C)c1NC(=O)N(C)C[C@@H]1Oc2cc(C#CCN(C)C)ccc2S(=O)(=O)N([C@@H](C)CO)C[C@@H]1C
7	2	5.2	C[C@H](O)C#Cc1ccc2c(c1)O[C@H](CN(C)C(=O)Cc1ccccn1)[C@@H](C)CN([C@H](C)CO)S2(=O)=O
-1	5	-5.3	CCC(=O)N1[C@H](C(=O)OC)[C@@H](CO)[C@@H]2Cn3c(ccc(/C=C/c4ccccc4)c3=O)[C@@H]21
11	6	5.8	CCCNC(=O)C[C@@H]1CC[C@H]2[C@@H](COC[C@H](O)CN2C(=O)Nc2ccccc2OC)O1
-1	-1	-0.1	O=C1CCC(=O)N[C@@H](c2ccccc2)C/C=C\CCN1
6	7	-0.9	CCCNC(=O)C[C@@H]1CC[C@@H]2[C@H](COC[C@H](O)CN2C(=O)C2CCOCC2)O1
3	1	2.3	C[C@H](CO)N1C[C@H](C)[C@H](CN(C)S(=O)(=O)c2ccc(C#N)cc2)Oc2ncc(/C=C/c3ccccc3)cc2C1=O
11	13	-2.5	CCC(=O)N1[C@H](CO)[C@H](c2ccc(-c3ccc(C#N)cc3)cc2)C12CN(C(C)=O)C2
0	1	-1.4	Cc1ccccc1-c1cnc2c(c1)C(=O)N([C@@H](C)CO)C[C@H](C)[C@H](CN(C)C(=O)c1ccncc1)O2
-3	-2	-1.0	CCC(=O)NC[C@H]1[C@@H](c2ccc(C3=CCCC3)cc2)[C@H](CO)N1C(C)=O
2	2	0.9	Cc1noc(C)c1NC(=O)Nc1ccc2c(c1)C(=O)N([C@@H](C)CO)C[C@H](C)[C@@H](CN(C)Cc1ccc3c(c1)OCO3)OCCCC[C@H](C)O2
1	4	-3.8	C[C@H]1CCCCO[C@H](CN(C)Cc2ccc3c(c2)OCO3)[C@@H](C)CN([C@@H](C)CO)C(=O)c2cc(NC(=O)CCC(F)(F)F)ccc2O1
?	nt	nt	CO[C@@H]1CN(C)C(=O)c2cc(NC(=O)Nc3ccc(Cl)c(Cl)c3)ccc2OC[C@H](C)NC[C@H]1C

Structural class, those above with a Cl atom
DUX4 txn inh	DUX4 txn inh difference	DUX4 txn inh control	canonical_smiles
-8	2	-10	COc1ccc2c3c([nH]c2c1)[C@H](CO)N(C(C)=O)CC31CCN(Cc2ccccc2Cl)CC1
?	nt	nt	CO[C@@H]1CN(C)C(=O)c2cc(NC(=O)Nc3ccc(Cl)c(Cl)c3)ccc2OC[C@H](C)NC[C@H]1C

4 entries drawn at random from those above, as already listed:
DUX4 txn inh	DUX4 txn inh difference	DUX4 txn inh control	canonical_smiles
-3	-2	-1.2	N#C[C@@H]1[C@@H](c2ccc(-c3ccncc3)cc2)[C@@H](CO)N1C(=O)C1CCC1
2	8	-6.4	COc1ccccc1C#Cc1ccc2c(c1)[C@H]1[C@H](CCN1C(=O)CN1CCOCC1)[C@@H](CO)N2
1	0	1.0	C[C@H](CO)N1C[C@H](C)[C@H](CN(C)C(=O)c2ccc(F)cc2)Oc2ncc(C#CC3CC3)cc2C1=O
0	4	-4.0	CNC[C@H]1Oc2c(NS(=O)(=O)c3cn(C)cn3)cccc2C(=O)N([C@@H](C)CO)C[C@H]1C

Other structures follow.
DUX4 txn inh	DUX4 txn inh difference	DUX4 txn inh control	canonical_smiles
0	2	-1.8	O=C(C[C@H]1CC[C@@H]2[C@H](COC[C@H](O)CN2C(=O)c2ccccc2F)O1)NCc1ccc(Cl)c(Cl)c1
-2	-19	17	CCNC(=O)[C@@H]1[C@@H](CO)[C@@H]2Cn3c(ccc(-c4ccc(F)cc4)c3=O)[C@@H]2N1Cc1cc(F)ccc1F
-3	-1	-2.5	CCCC#Cc1cnc2c(c1)C(=O)N([C@@H](C)CO)C[C@@H](C)[C@H](CN(C)C(=O)Cc1ccccc1)O2
?	nt	nt	O=C(C1CCC1)N1CC[C@H]2[C@H](CO)Nc3ccc(-c4cccc(F)c4)cc3[C@H]21
2	4	-2.1	COc1ccc2c3c([nH]c2c1)[C@H](CO)N(Cc1nccs1)CC31CCN(Cc2nccs2)CC1
14	7	6.8	Cc1ccccc1S(=O)(=O)N1CC[C@@H]2[C@H]1c1cc(-c3ccccc3F)ccc1N[C@@H]2CO
-6	-11	4.6	COCC(=O)Nc1ccc2c(c1)C(=O)N(C)C[C@H](OC)[C@@H](C)CN(CC1CCCCC1)[C@@H](C)CO2
6	1	4.9	CC(C)CC#Cc1ccc([C@H]2[C@@H](CO)N3C(=O)CN(C(=O)c4cnccn4)C[C@@H]23)cc1
4	1	3.1	C[C@@H]1CN([C@H](C)CO)C(=O)c2cc(NS(=O)(=O)c3cn(C)cn3)ccc2O[C@@H](C)CCCCO[C@H]1CN(C)Cc1ccc2c(c1)OCO2
7	2	5.4	COCC(=O)Nc1ccc2c(c1)[C@@H]1C[C@@H](CC(=O)NC3CCCC3)O[C@@H](CO)[C@@H]1O2
-1	0	-0.6	CCCNC(=O)[C@@H]1[C@@H](CO)[C@@H]2Cn3c(ccc(-c4cccc(F)c4)c3=O)[C@H]1N2C(C)=O
-2	-2	-0.1	O=C(C[C@H]1C[C@H]2c3cc(NC(=O)NC4CCCCC4)ccc3O[C@H]2[C@H](CO)O1)NCCc1ccccc1
-1	2	-3.6	O=C(Cc1ccncc1)Nc1ccc2c(c1)[C@H]1C[C@H](CC(=O)N3CCc4ccccc4C3)O[C@@H](CO)[C@H]1O2
3	-2	4.8	COCC(=O)N(C)C[C@H]1[C@H](c2ccc(-c3cccnc3)cc2)[C@H](CO)N1C(C)=O
-9	-7	-1.6	COc1ccccc1NC(=O)N1CC[C@@H]2[C@H]1c1cc(C#Cc3cccc(F)c3)ccc1N(C)[C@@H]2CO
-2	2	-3.3	O=C(C[C@H]1CC[C@H]2[C@@H](COC[C@@H](O)CN2S(=O)(=O)c2cccc(Cl)c2)O1)NC1CCCC1
